Rce1 inhib: yeast Ras-converting enzyme inhibition; yeast membranes, quenched prenylated peptide cleavage fluorescence; calls only; actives 0.27% (n = 290,000);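 active = fall in fluorescence gain of 50% or more versus controls, with final raw signal at or below 3038400; inconclusive = same 50% fall but final raw signal above 3038400; inactive = fall in fluorescence gain under 50%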;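 note: plate controls were neutral control wells for no effect and wells lacking membranes for full effect; tested at 10 µM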
eIF4H inh: inhibitors of RNA binding by human eIF4H | Q15056 | eIF4H fluorescence polarization binding assay | inhibition, % at 35 µM | actives 0.94% (n = 290,000);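 active = 50% or more with normal probe brightness, or confirmed in later tests; inconclusive = above 50% with abnormal brightness, or retests that disagree; inactive = below 50% or failed in later tests; about a fifth of its hits are not listed in these tables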;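 note: calls also rest on retests at 20 µM and on dose response follow-up; 0% = protein and probe with vehicle and 100% = probe without protein; strong numbers were not always called active; many hits fall short of the cut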
UUG fidelity: alters start codon recognition fidelity in yeast; S. cerevisiae UUG-firefly luciferase reporter, luminescence/redox ratio; activity score, % at 18.7 µM; actives 0.13% (n = 350,000);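 active = replicate mean at a twofold rise or more, about +100% in these data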;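 note: firefly luciferase made from a UUG start codon reports start codon fidelity; reporter light over untreated wells divided by growth signal over untreated wells; some hits fall short of that in this replicate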
CSC inhib: cancer stem cell inhibition. cancer stem cell-like cells viability, luminescence. inhibition, % at 7.5 µM. actives 1.1% (n = 300,000). AID 2717;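 active = mean at 75% or more and at least half the replicates too; inconclusive = mean and replicates disagree; tested in HMLE shEcad cells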;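 note: 0% = median of negative and 100% = median of positive control wells; the first replicate is given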
PABP FP inh: PABP-poly(A) binding inhibition; actives 1% (n = 290,000); P11940; inhibition, % at 35 µM; PABP-poly(A) RNA binding, fluorescence polarization;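 active = 50% or more with normal probe brightness, or confirmed in later tests; inconclusive = above 50% with abnormal brightness, or retests that disagree; inactive = below 50% or failed in later tests; about a fifth of its hits are not listed in these tables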;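 note: calls also rest on retests at 20 µM and on dose response follow-up; controls were probe without protein and protein plus probe with vehicle; some compounds called inactive have numbers as strong as hits; many hits fall short of the cut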
Target sequence (P11940 whole entry, looked up): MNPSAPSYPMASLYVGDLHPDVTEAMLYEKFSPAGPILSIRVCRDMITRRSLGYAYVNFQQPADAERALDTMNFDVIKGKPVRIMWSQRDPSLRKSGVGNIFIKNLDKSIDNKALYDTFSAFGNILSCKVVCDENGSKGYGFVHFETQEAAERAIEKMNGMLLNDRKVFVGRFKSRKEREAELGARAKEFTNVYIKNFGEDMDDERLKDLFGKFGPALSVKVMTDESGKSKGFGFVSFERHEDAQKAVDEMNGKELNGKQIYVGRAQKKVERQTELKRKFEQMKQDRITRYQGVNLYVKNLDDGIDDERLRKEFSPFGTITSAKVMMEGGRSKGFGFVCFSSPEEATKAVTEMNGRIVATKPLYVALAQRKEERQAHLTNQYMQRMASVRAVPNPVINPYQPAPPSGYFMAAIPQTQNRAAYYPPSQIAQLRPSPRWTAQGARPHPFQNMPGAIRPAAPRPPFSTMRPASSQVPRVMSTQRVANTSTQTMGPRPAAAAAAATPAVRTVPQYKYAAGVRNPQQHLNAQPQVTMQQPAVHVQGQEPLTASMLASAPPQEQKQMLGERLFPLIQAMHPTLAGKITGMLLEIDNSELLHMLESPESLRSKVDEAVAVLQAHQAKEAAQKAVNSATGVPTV
Env fusion inh: blocks HIV Env-driven cell-cell fusion. HeLa-JRFL Env/CEM21 cell fusion, luciferase. inhibition, % at 12.3 µM. actives 1.1% (n = 360,000). AID 651610;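 active = mean replicate inhibition score of at least 50 and every replicate individually at or above 50; inconclusive = only one of the two criteria met; inactive = mean below 50 and not all replicates reaching 50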;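 note: 0% = plate neutral controls and 100% = maraviroc near 300 nM; one replicate is shown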
MT1-MMP act inh: MT1-MMP (human) activation inhibition | actives 0.061% (n = 360,000) | HT1080 RFP-PRO-GFP cells, GFP/RFP ratio fluorescence, overnight; percent of plate control window, DMSO zero | GFP/RFP ratio change, % at 20 µM | P50281;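 active = GFP/RFP ratio change of at least 30% with cell ATP level not reduced by more than half and red fluorescence within 50% of control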; note: strong numbers were not always called active
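Read-out: GFP/RFP fluorescence ratio; Test system: RFP-PRO-GFP reporter HT1080 cells; Compound dosing: single-point 20 µM compound, 1% DMSO; Times: overnight compound exposure at 37 °C.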
MT1-MMP act inh RFP: further read-out of MT1-MMP act inh, marked with its call; RFP signal change, %; measured here: RFP expression control read;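 0 = vehicle wells; hits needed this value within 50% of zero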
Numbers without * were called inactive; i = inactive; u = inconclusive; x = no result given; + = active, no number; & = joins results of further samples.

No.	Compound	Env fusion inh	CSC inhib	MT1-MMP act inh RFP	UUG fidelity	PABP FP inh	MT1-MMP act inh	Rce1 inhib	eIF4H inh
1	Cc1ccc(N(Cc2cc3ccccc3[nH]c2=O)C(=O)c2cccs2)cc1	-7	-2	-3	x	2	-1	i	-3
2	COc1ccc(-c2cccc(C(=O)Nc3cccc(C(=O)O)c3)c2)cc1	-40	-26	4	x	0	4	i	3
3	Cc1ccc(C)c(OCC(=O)N/N=C\c2cccn2C)c1	3	-1	4	x	-20	8	i	4
4	CCOc1ncccc1C(=O)OCC(=O)NCCc1ccc(OC)cc1	x	x	4	-9	10	-2	i	0
5	COc1ccc(S(=O)(=O)NCc2ccc3c(c2)OCO3)cc1OC	11	-8	-4	-18	6	-7	i	0
6	CC(C)NC(=O)c1cccc(C(F)(F)F)c1	4	-6	1	-10	-13	2	i	-11
7	Cc1ccc(C(C)(C)C)c(OCCCCN2CCCC2)c1	0	1	5	7	9	-1	i	-4
8	COC(=O)c1cc(=O)n2c(-c3ccc(OC)cc3)csc2n1	x	1	4	-6	7	4	i	-5

No.	Compound	Env fusion inh	CSC inhib	MT1-MMP act inh RFP	UUG fidelity	PABP FP inh	MT1-MMP act inh	Rce1 inhib	eIF4H inh
9	CS(=O)(=O)N1CCC(C(=O)Nc2ccccc2)CC1	x	6	1	1	8	-5	i	-15
10	Cc1cc(Cl)cc2sc(NC(=O)C3CC3)nc12	-23	-10	0	-20	4	-2	i	-8
11	COc1cc(/C=N/NC(=O)CCOc2ccccc2C)cc(Br)c1O	17	x	-6	x	-17	4	u	-4
12	Cc1ccccc1C(=O)N1CCC(C(=O)OCc2nc(N)nc(Nc3ccccc3)n2)CC1	26	2	2	10	x	4	x	x
13	O=C(NCCCN1CCOCC1)c1c(O)c2ccccc2[nH]c1=O	-9	-20	5	-8	16	9	i	-6
14	CCCCN1C(=O)C(=O)c2cc(Cl)ccc21	4	33	9	-1	x	4	x	x
15	COc1ccc(CCNC(=O)CSc2nccc(=O)[nH]2)cc1OC	-2	-8	-4	x	6	-8	i	2
16	CC1SCC(=NOCc2c(Cl)cccc2Cl)CS1 (centres undefined)	-3	6	1	-19	-10	-1	i	-11

No.	Compound	Env fusion inh	CSC inhib	MT1-MMP act inh RFP	UUG fidelity	PABP FP inh	MT1-MMP act inh	Rce1 inhib	eIF4H inh
17	CCCCn1c(N)c(N(CC(C)C)C(=O)c2ccc(F)c(S(=O)(=O)N3CCOCC3)c2)c(=O)[nH]c1=O	-9	x	1	8	x	2	i	x
18	Fc1ccccc1N1CC(c2ccccc2)C(c2cccs2)=N1 (centres undefined)	38	15	-6	-10	0	-3	x	-12
19	N=C1/C(=C\c2ccc(-c3cccc(C(=O)O)c3)o2)C(=O)N=C2SC=C(c3ccccc3)N12	-7	-24	9	x	60*	-10	i	58*
20	CCCNC(=O)Nc1ccccc1C(=O)Nc1ccc(OC)cc1	-11	15	-5	-18	-4	-1	i	-5
21	O=C(CN1CCN(S(=O)(=O)N2CCCCC2)CC1)Nc1cc(Cl)cc(Cl)c1	13	-2	3	-10	-4	3	i	-10
22	COC(=O)c1sccc1NC(=O)c1ccc(OC)cc1OC	9	1	-4	4	-8	-18	i	-1
23	Cc1ccccc1S(=O)(=O)N(CC(O)CN1C(=O)NC(C)(C)C1=O)c1ccccc1 (centres undefined)	8	-13	0	-16	7	-1	i	8
24	CCN1CCN(CC(=O)Nc2sc3c(c2C#N)CCC(C)C3)CC1 (centres undefined)	x	6	2	x	1	5	i	-6

No.	Compound	Env fusion inh	CSC inhib	MT1-MMP act inh RFP	UUG fidelity	PABP FP inh	MT1-MMP act inh	Rce1 inhib	eIF4H inh
25	COc1ccccc1NC(=O)COC(=O)c1[nH]c(=O)[nH]c(=O)c1N	-5	-16	-1	-7	x	5	x	x
26	COc1cc2[nH]c3c(=O)n(N)c(=O)[nH]c3c2cc1OC	-4	4	2	-1	-6	11	i	4
27	COC(=O)c1ccccc1NC(=O)Cn1c(=O)n(Cc2ccccc2)c(=O)c2c(C)c(C)sc21	-12	24	-6	x	-2	2	i	3
28	N#Cc1cccc(S(=O)(=O)NCC(=O)NCCCc2ccccc2)c1	0	6	0	-5	4	-2	i	-13
29	Nc1ccc(Oc2ccc(F)cc2)nc1	-6	0	4	x	u	-19	i	u
30	COc1cc(-c2cnc3c(NC(C)=O)cc(-c4ccc(N5CCN(C)CC5)cc4)cn23)cc(OC)c1OC	28	x	-2	-9	x	-1	x	x
31	Cc1c(C(=O)N2c3ccccc3Sc3ccccc32)cccc1[N+](=O)[O-]	x	20	-7	x	11	-7	i	5
32	Nc1ncnc2c1ncn2[C@@H]1O[C@H](C(=O)NCC2CCN(Cc3ccccc3)CC2)[C@@H](O)[C@H]1O	15	x	6	-8	x	3	x	x

No.	Compound	Env fusion inh	CSC inhib	MT1-MMP act inh RFP	UUG fidelity	PABP FP inh	MT1-MMP act inh	Rce1 inhib	eIF4H inh
33	Cc1ccc(C(=O)COC(=O)CNC(=O)C(c2ccccc2)c2ccccc2)cc1[N+](=O)[O-]	-100	-15	8	3	1	7	i	0
34	NS(=O)(=O)c1ccc(NC(=O)/C=C/c2cn(-c3ccccc3)nc2-c2cccc(Cl)c2)cc1	13	25	-2	x	1	1	+	-5
35	Cc1ccc(S(=O)(=O)NNC(=O)c2sc(=S)n(C)c2C)cc1	-11	-9	5	-27	0	-1	i	-9
36	CSCC(O)Cn1ncc2ccccc2c1=O (centres undefined)	7	-9	3	x	-15	4	i	-14
37	Cc1cccc(OCCCCNCc2ccccc2)c1	21	9	2	x	6	1	i	13
38	Cc1nc2cc(S(=O)(=O)N3CCC(C(=O)O)CC3)ccc2n1C1CCCC1	x	6	2	-9	2	4	i	6
39	c1ccc(Oc2ncnc3oc(-c4ccccc4)cc23)cc1	x	3	-2	-14	14	-1	i	2
40	Cc1cccc(N=Cc2c(O)cc(C)oc2=O)c1	-1	6	3	x	10	-18	i	14

No.	Compound	Env fusion inh	CSC inhib	MT1-MMP act inh RFP	UUG fidelity	PABP FP inh	MT1-MMP act inh	Rce1 inhib	eIF4H inh
41	COc1ccc(NC(=O)N(C)C[C@H]2Oc3ccc(NC(=O)Nc4ccc5c(c4)OCO5)cc3C(=O)N([C@H](C)CO)C[C@@H]2C)cc1	-47	x	4	11&4	x	-1	x	x
42	O=C(Nc1cccc(NC(=O)c2ccc(Br)o2)c1)c1ccccc1	6	x	3	-9	5	0	i	-9
43	CC[C@]1(c2cccc(C)c2)C(=O)N(C(=O)OC)N1C(=O)OC	31	30	3	1	-12	-1	i	-4
44	CC(C)(C)c1ccc(Oc2ccc(NC(=O)CCCC(=O)O)cn2)cc1	4	-17	1	9	-6	0	i	-13
45	Cc1cccn2cc(CCNC(=O)c3ccco3)nc12	-16	-3	3	-14	-6	0	i	-5
46	O=C(CSc1nnc(-c2ccncc2)o1)Nc1cccc(F)c1	-21	x	-1	-7	x	-2	i	x
47	O=C(O)c1cccc(-c2noc(-c3cccc(Cl)c3)n2)c1	x	9	1	-40	x	-2	x	x
48	CC(C)Oc1ccc2nnnn2n1	x	3	6	12	-7	5	i	-5

No.	Compound	Env fusion inh	CSC inhib	MT1-MMP act inh RFP	UUG fidelity	PABP FP inh	MT1-MMP act inh	Rce1 inhib	eIF4H inh
49	CC(=O)Oc1ccc(C(=O)c2ccccc2)c(OC(C)=O)c1	-1	21	-4	x	-17	-2	i	-9
50	CCCCN1CC(=O)N2[C@H]3c4cc(Cl)ccc4OC[C@@H]3[C@H](C(=O)OCC)[C@]2(C)C1=O	-20	3	2	-1	x	0	x	x
51	CCn1cnc2c1c(=O)n(CC(=O)N1CCc3ccccc31)c(=O)n2Cc1ccccc1	1	-19	3	-4	-5	1	i	-4
52	O=C1CCCc2c1nc(-c1ccco1)n2O	x	x	-2	-9	-7	-3	i	-1
53	Cc1ccc(S(=O)(=O)N2CCCOC2CNC(=O)C(=O)NCc2ccccc2C)cc1 (centres undefined)	x	x	1	-7	0	7	i	-11
54	C=CCNC(=O)/C(C#N)=C/c1c(N(Cc2ccccc2)Cc2ccccc2)nc2ccccn2c1=O	23	8	-22	-5	5	-10	i	1
55	COc1ccc(CCNC(=O)Nc2ccc([N+](=O)[O-])cc2)cc1OC	-1	1	-1	x	3	2	i	-4
56	Cc1nn(-c2ncc(C(F)(F)F)cc2Cl)c(=O)n1-c1ccccc1	-1	-13	-1	-3	-2	-2	i	1

No.	Compound	Env fusion inh	CSC inhib	MT1-MMP act inh RFP	UUG fidelity	PABP FP inh	MT1-MMP act inh	Rce1 inhib	eIF4H inh
57	Cc1cccc(-n2nc(C)cc2N)c1	0	-11	-1	-19	2	-4	i	-7
58	Cc1cc(C)nc(Nc2n[nH]c(-c3cccc4ccccc34)n2)n1	-116	7	-10	-23	-4	-14	i	-3
59	COCCN(C(=O)COC(=O)c1sccc1C)c1c(N)n(Cc2ccccc2)c(=O)[nH]c1=O	x	-15	2	-25	4	-1	i	5
60	O=c1[nH]c2c(c3c1CCCC3)CCCC2	x	-7	1	-7	-6	-3	i	-2
61	O=C(NCCCN1CCOCC1)c1ccc2c(c1)N(Cc1ccccc1F)C(=O)c1ccccc1S2=O (centres undefined)	-9	-11	0	-3	-7	-1	i	-4
62	CCCOC(=S)NC(=O)c1sc2ccccc2c1Cl	8	-2	4	-12	1	0	i	4
63	Cc1cccc(C)c1N1CC(=O)N(c2c(C)cccc2C)CC1=O	-125	-10	3	-10	-1	-1	i	-6
64	CCOC(=O)/C=C/CN(C(=O)OC(C)(C)C)S(=O)(=O)N1CC=CC1	10	2	7	30	-8	2	i	-4

No.	Compound	Env fusion inh	CSC inhib	MT1-MMP act inh RFP	UUG fidelity	PABP FP inh	MT1-MMP act inh	Rce1 inhib	eIF4H inh
65	CC(C)(C)N(Cc1ccccc1)C(=O)CN1C(=O)c2ccccc2S1(=O)=O	-3	-16	0	-9	x	0	x	x
66	Cc1ccc(S(=O)(=O)Nc2nc(C)cc(N/N=C/c3ccc(O)cc3)n2)cc1	-28	-5	0	0	-4	-8	i	-3
67	CC(C)N1CC(C(=O)Nc2ccc(Cl)c(Cl)c2)CC1=O (centres undefined)	-2	3	3	-10	-3	5	i	-3
68	COc1cc(C2C(C(=O)c3ccc(C)o3)=C(O)C(=O)N2Cc2ccccc2)ccc1O (centres undefined)	3	-8	1	-17	x	5	i	x
69	CC(C)[C@H](NC(=O)C1CCN(S(=O)(=O)c2ccc(F)cc2)CC1)C(=O)N1CCCCCC1	-4	-3	0	x	0	4	i	-3
70	CC(=O)N(Cc1cccs1)Cc1cc2ccc(C)c(C)c2nc1Cl	12	-5	0	x	-5	0	i	7
71	CCCNC(=O)CS(=O)(=O)Cc1nc(-c2ccccc2C)oc1C	16	4	1	-10	-7	3	i	-7
72	O=C(CN1C(=O)c2ccccc2S1(=O)=O)NCc1cccs1	-10	x	3	-14	-5	-4	i	-11
73	COc1cc(/C=N/NC(=O)c2cccnc2)ccc1OS(=O)(=O)c1cc(C)ccc1C	-1	19	-8	x	-4	-1	i	-8
74	COc1cc(NC(=O)COc2cccc3c2OC(C)(C)C3)cc(OC)c1OC	0	5	-26	-18	x	4	x	x
75	Cc1ccc(C)c(NC(=O)CSc2nnc3n2CCCCC3)c1	-8	-13	-2	-31	10	-5	i	3

Screening data as filed in PubChem.
